Vaccinia mCherry: vaccinia inhibition (mCherry reporter) | Vaccinia virus mCherry reporter infection, fluorescence; about a quarter of the inactives have no number | Potency, µM (series often up to 36.5 µM), inactives show at the top dose activity change, negative = inhibition, most hits filed as inhibitors | 310,000 tested, 0.63% active; active = well fitted inhibition curve with a large enough effect; inconclusive = small, poorly fitted or top-dose-only effect; inactive = no such curve, though single readings can be large or run the other way; tested in A549 cells; note: nearly all actives have a fitted effect of over 35% in size; inactives centre near -10
Vaccinia Venus: vaccinia inhibition (Venus reporter); Vaccinia virus Venus reporter expression, fluorescence; Potency, µM (doses to about 36.5 µM), without a hit: top-dose activity change, negative = inhibition, actives largely listed as inhibitors; 330,000 tested, 0.46% active; active means well fitted inhibition curve with a large enough effect; inconclusive means small, poorly fitted or top-dose-only effect; inactive means no such curve, though single readings can be large or run the other way; tested in A549 cells; note: nearly all actives have a fitted effect of over 30% in size; inactives centre near -10
* marks the source's active call; other numbers are inactive results; i = inactive; u = inconclusive; x = not tested or not shown; [ ] = dose if it differs, or a comment. % is set by controls: 0 for no effect and ±100 for the full control effect; potency is the fitted concentration of half-maximal effect. Random draw from the library; overall some 0.82% were active at least once.

SMILES | Vaccinia mCherry | Vaccinia Venus
C=CCOC(=O)C1=C(C)NC(SCC(=O)OCC)=C(C#N)C1c1ccc(C)cc1 (stereo unspecified) | i | -7.2%
COc1cc2cc(C(c3nnnn3C(C)(C)C)N3CCc4ccccc43)c(=O)[nH]c2cc1OC (stereo unspecified) | -4.7% | -14.4%
COc1cc(/C=C(\C#N)C(=O)NC(C)C)cc(Cl)c1O | -5.6% | -3.2%
C[C@@H]1CN([C@@H](C)CO)C(=O)CCCn2nncc2CO[C@H]1CN(C)C(=O)Nc1ccccc1C(F)(F)F | -3.4% | -6.1%
CCCc1nnc(NC(=O)CCC(=O)N2CCN(CCOc3ccc(C)cc3)CC2)s1 | x | -15.1%
O=C(/C=C/c1ccccc1)/C=C/c1ccccc1 | u | 10µM*
Cn1c(=O)c(Sc2ccc(Cl)cc2)c(O)c2ccccc21 | -3.9% | 1.8%
Cc1ccc2oc(C(=O)Nc3sc4c(c3C(=O)NCc3ccco3)CCC4)cc(=O)c2c1 | 4.7% | 8.0%
COc1ccc(Cn2c(C(=O)O)c(CNCc3ccco3)c3ccc(OC)cc32)cc1 | 0.3% | -8.6%
CCOC(=O)N1CCC(NC(=O)c2cnn(-c3cccc(Cl)c3C)c2C2CCN(C(=O)OC(C)(C)C)CC2)CC1 | -6.1% | -5.2%
COc1ccc(CCn2c(NN=C3CCCCC3)nc3c2c(=O)[nH]c(=O)n3C)cc1 | -16.7% | -18.4%
O=C(CN(c1ccc(F)cc1)S(=O)(=O)c1ccc2c(c1)OCCO2)NCc1cccnc1 | -10.0%[1.46 µM] | -19.9%
COc1ccc(CNC(=O)c2cnc(C)cn2)cc1 | -10.5%[1.46 µM] | -8.1%
CC1CCCN(S(=O)(=O)c2cccc(C(=O)NCC3CCCO3)c2)C1 (stereo unspecified) | i | 0.6%
O=C(C1=C[C@H](c2coc3ccccc3c2=O)C[C@H](OCCCCO)O1)N1CCOCC1 | -19.3% | -19.8%
CCc1ccc(N2C(=O)NC(=O)C(CCc3ccncc3)(CCc3ccncc3)C2=O)cc1 | i | -11.3%
Cc1ccc(NC(=O)c2cccc(NC(=O)CCC(=O)O)c2)cc1C | -1.0% | -5.0%
CCCOc1ccc(C2SCC(=O)Nc3c2c(C)nn3-c2cccc(C)c2)cc1OC (stereo unspecified) | -0.5% | -0.9%
COc1ccc(CCNc2oc(-c3ccc(OC)c(OC)c3)nc2P(=O)(OC)OC)cc1OC | -1.6% | -6.3%
O=C(C1CCC1)N1CCc2cc(S(=O)(=O)N3CCCCC3)ccc21 | -7.8% | -1.3%
O=C(CC1C(=O)NCCN1Cc1cccc(C(F)(F)F)c1)NC1CCOCC1 (stereo unspecified) | i | -18.8%
CN(Cc1cnn(C)c1)C(=O)CC1C(=O)NCCN1Cc1cccc(Oc2ccccc2)c1 (stereo unspecified) | -7.7% | -14.9%
O=C(CCn1c(=O)sc2ccccc21)NCCN1CCOCC1 | -13.6% | 7.5%
Cn1cnnc1SC1c2cccc3cccc(c23)C1NS(=O)(=O)c1ccccc1 (stereo unspecified) | -17.7% | -9.2%
CN(Cc1ccccc1)C(=O)CN1CCN(C(c2ccccc2)c2ccccc2)CC1 | u | u
O=C(N/N=C/c1ccc(N2CCOCC2)s1)c1ccccc1Br | -1.9% | -8.3%
COc1ccc2[nH]c(=O)c(CN(Cc3ccccc3)Cc3nnnn3CC3CCCO3)cc2c1 (stereo unspecified) | -2.5% | -11.9%
Cc1ccc(NC(=O)CSCC(=O)OCc2cc(=O)oc3cc(O)ccc23)c(C)c1 | -22.0% | 2.7%
Cc1ccc2[nH]cc(C(=O)CCl)c2c1 | u | -25.1%
C=CCn1c(CSc2ccccc2[N+](=O)[O-])n[nH]c1=S | -12.1% | -8.4%
Cc1cccc(C)c1C(O)c1ncc(-c2ccccc2Cl)[nH]1 (stereo unspecified) | i | -6.2%
COc1ccccc1NC(=O)Cn1cnc2sc(C(=O)Nc3cc(OC)c(OC)c(OC)c3)c(C)c2c1=O | i[7.34 µM] | -13.7%[7.34 µM]
COc1ccc(CC(=O)Nc2ccccc2N2CCCC2)cc1OC | -15.0% | -3.6%
C=CCn1c(Cc2csc(N)n2)nnc1SCC(=O)Nc1ccc(C(=O)OCC)cc1 | -25.7% | -12.2%
CCCCCCC(=O)NNC(=O)c1c(O)c2ccccc2n(CCC)c1=O | 2.7% | 1.4%
Cc1ccc2c(c1)C(=O)C(=O)N2Cc1ccccc1 | -13.1% | -4.6%
Cc1ccc(-n2nnnc2SCC(=O)Nc2c(C)n(C)n(-c3ccccc3)c2=O)cc1 | i | -16.1%
Cc1ccc(N(CC2CO2)S(=O)(=O)c2ccc(C)cc2)cc1 (stereo unspecified) | i | -9.2%
CCC(NC(=O)c1ccncc1)c1ccccc1 (stereo unspecified) | i | -10.8%
O=S(=O)(Nc1cccc(-c2ccc(N3CCCCCC3)nn2)c1)c1cccc(F)c1 | -22.2% | -16.4%
COc1cc([N+](=O)[O-])cc(CN2CCCCC2)c1O | -11.0% | -6.8%
C#CC(C)OCC1CNC(=S)O1 (stereo unspecified) | -11.8% | -0.3%
O=C(Cc1ccc([N+](=O)[O-])cc1)N1CCN(Cc2ccc3c(c2)OCO3)CC1 | -2.4% | -4.5%
CC(=O)N[C@H](CS)C(=O)O | -15.4% | -10.9%
COCCN(C(=O)c1csnn1)C(C(=O)NC1CCCC1)c1ccccc1F (stereo unspecified) | -2.5% | 2.8%
Cn1ncc(Cl)c1C(=O)N1CCN(S(=O)(=O)c2ccc(Cl)s2)CC1 | -0.9% | -11.9%
COc1ccc(C2C(=O)N(C3CCCCC3)CC(=O)N2CCc2ccc(OC)c(OC)c2)cc1 (stereo unspecified) | -8.4% | -8.0%
Cc1ccc2nc(-c3ccc(C#N)cc3)c(Cc3ccccc3)n2c1 | -3.2% | 3.0%
CCOc1ccc(C(C)=O)cc1CC(C(N)=O)C(N)=O | i | -12.2%
CC(=O)CSc1nnc(-c2ccc(S(=O)(=O)N3CCOCC3)cc2)n1C | i | 13.2%
CN1CCN(C(=O)C2CCCN(S(=O)(=O)c3ccc(Cl)cc3)C2)CC1 (stereo unspecified) | -24.6% | -14.6%
COc1cc2c(cc1OC)CN(C(=O)c1cc3ccccc3oc1=O)CC2 | u | u
Cc1cc2oc(=O)cc(CN3CCCc4ccccc43)c2cc1C | -10.4% | 2.1%
Cc1nc2ccccc2c(=O)n1CCc1ccc(O)cc1 | -2.1% | -6.9%
Cc1cccc(NC(=O)CSc2nc(-c3ccccc3)cc(=O)[nH]2)c1C | 4.7% | -14.7%
COC(=O)c1ccc(CSc2nnc(-c3ccncc3)o2)cc1 | i | -22.1%
COc1cccc(/C=N/NC(=O)c2cc(-c3ccccn3)nc3ccccc23)c1O | 1µM* | u
CC(C)Sc1cc(N2CCCC2)nc(-c2ccc(F)cc2)n1 | x | u
COC(=O)[C@@]12C[C@@H](CC(=O)NCc3cccc4ccccc34)C(=O)N(Cc3cccc4ccccc34)C1=CCC(C)(C)C2 | i | 14.1%
O=C(NCC1CC1(Cl)Cl)Nc1ccc(Cl)c(Cl)c1 (stereo unspecified) | i | -11.1%

Next compounds follow.
SMILES | Vaccinia mCherry | Vaccinia Venus
CCNC(=O)c1ccc(C23CC4CC(CC(C4)C2)C3)o1 | i | -23.7%
C=C1CCN(C(C)C(=O)OC)S(=O)(=O)c2ccccc21 (stereo unspecified) | i | 0.5%
Cc1ccc(C)c2[nH]c(=O)c(CN(CCN3CCCC3)C(=O)Nc3cccc(Cl)c3)cc12 | -10.0%[1.46 µM] | -12.7%
COC(=O)/C(C(C)=O)=C(/C=C/C=C/N(C)C)N(C)C | i | -14.4%

By substructure: the entries above with a halogen (16)
SMILES | Vaccinia mCherry | Vaccinia Venus
COc1cc(/C=C(\C#N)C(=O)NC(C)C)cc(Cl)c1O | -5.6% | -3.2%
C[C@@H]1CN([C@@H](C)CO)C(=O)CCCn2nncc2CO[C@H]1CN(C)C(=O)Nc1ccccc1C(F)(F)F | -3.4% | -6.1%
Cn1c(=O)c(Sc2ccc(Cl)cc2)c(O)c2ccccc21 | -3.9% | 1.8%
CCOC(=O)N1CCC(NC(=O)c2cnn(-c3cccc(Cl)c3C)c2C2CCN(C(=O)OC(C)(C)C)CC2)CC1 | -6.1% | -5.2%
O=C(CN(c1ccc(F)cc1)S(=O)(=O)c1ccc2c(c1)OCCO2)NCc1cccnc1 | -10.0%[1.46 µM] | -19.9%
O=C(CC1C(=O)NCCN1Cc1cccc(C(F)(F)F)c1)NC1CCOCC1 (stereo unspecified) | i | -18.8%
O=C(N/N=C/c1ccc(N2CCOCC2)s1)c1ccccc1Br | -1.9% | -8.3%
Cc1ccc2[nH]cc(C(=O)CCl)c2c1 | u | -25.1%
Cc1cccc(C)c1C(O)c1ncc(-c2ccccc2Cl)[nH]1 (stereo unspecified) | i | -6.2%
O=S(=O)(Nc1cccc(-c2ccc(N3CCCCCC3)nn2)c1)c1cccc(F)c1 | -22.2% | -16.4%
COCCN(C(=O)c1csnn1)C(C(=O)NC1CCCC1)c1ccccc1F (stereo unspecified) | -2.5% | 2.8%
Cn1ncc(Cl)c1C(=O)N1CCN(S(=O)(=O)c2ccc(Cl)s2)CC1 | -0.9% | -11.9%
CN1CCN(C(=O)C2CCCN(S(=O)(=O)c3ccc(Cl)cc3)C2)CC1 (stereo unspecified) | -24.6% | -14.6%
CC(C)Sc1cc(N2CCCC2)nc(-c2ccc(F)cc2)n1 | x | u
O=C(NCC1CC1(Cl)Cl)Nc1ccc(Cl)c(Cl)c1 (stereo unspecified) | i | -11.1%
Cc1ccc(C)c2[nH]c(=O)c(CN(CCN3CCCC3)C(=O)Nc3cccc(Cl)c3)cc12 | -10.0%[1.46 µM] | -12.7%

Screening data: PubChem, National Center for Advancing Translational Sciences (NCATS)
